FGF22 binding: binders of human FGF22 protein, primary screen, FGF22 synaptogenesis inhibitor project, biophysical, thermal shift, single point | 340,000 tested, 1.5% active | recombinant FGF22 thermal shift, SYPRO orange fluorescence; percent of sucrose octasulfate shift, DMSO zero | calls only at 9.99 µM;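 active = melting point raised past a set limit in the mean and every replicate; three in four hits are not shown here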
Target sequence (Q9HCT0 whole entry, looked up): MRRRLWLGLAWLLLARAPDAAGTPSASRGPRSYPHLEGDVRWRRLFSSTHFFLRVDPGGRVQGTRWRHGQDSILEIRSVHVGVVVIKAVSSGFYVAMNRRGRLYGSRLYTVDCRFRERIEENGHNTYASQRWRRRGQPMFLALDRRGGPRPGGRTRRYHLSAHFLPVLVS
Ecoli growth: E. coli growth inhibition, primary screen, OD600. 330,000 tested, 0.21% active. AID 1053175, 2014. OD600 absorbance (no concentration beside the values). Escherichia coli growth, 23 h; active compounds read low;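 active = OD600 absorbance below the run mean of sample wells minus 3.6 SD, in any replicate, cut at about 0.56 in these data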;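 also: stock transfer was 300 nL into about 60 µL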
An asterisk follows results filed as active; i = inactive; . = no result given. Only part of the results is shown. The share of hits here may be higher or lower than overall.

SMILES	FGF22 binding	Ecoli growth
Cc1cc(O)ccc1Cl	i	.
CCCNC(=O)N1[C@@H]2c3ccc(-c4ccccc4OC)c(=O)n3C[C@H]1[C@H](CO)[C@H]2C(=O)OC	i	.
Cc1cccc2nc(-c3ccccc3)c(-c3ccc(CN4CCC(n5c(=O)[nH]c6cc(Cl)ccc65)CC4)cc3)nc12	i	.
COc1ccc(-c2ccc([C@H]3[C@@H](CO)N4CCCCN(C(=O)Cc5ccccc5)C[C@H]34)cc2)cc1	i	.
CCOC(=O)[C@@H]1[C@@H]2NC(=S)N[C@@]1(C)Oc1ccccc12	i	.
COc1ccc(C#Cc2ccc([C@H]3[C@@H](CO)N4CCCCN(C(=O)Cc5cccnc5)C[C@@H]34)cc2)cc1	i	.
COC(=O)[C@@H]1[C@@H](CO)[C@@H]2Cn3c(ccc(-c4ccccc4F)c3=O)[C@H]1N2C(=O)C1CCC1	i	.
O=C(Cc1ccccc1)N1CCCCN2[C@@H](CO)[C@@H](c3ccc(C#CC4(O)CCCC4)cc3)[C@@H]2C1	i	.
CC(C)CC#Cc1ccc([C@H]2[C@H](CO)N3CCCCN(C(=O)Cc4ccccn4)C[C@@H]23)cc1	i	.
COC(=O)[C@H]1[C@H](CO)[C@H]2Cn3c(ccc(-c4ccccc4F)c3=O)[C@@H]1N2C(=O)C1CCC1	i	.
C/C=C/c1ccc([C@H]2[C@@H](CO)N3CCCCN(C(=O)Cc4cccnc4)C[C@@H]23)cc1	i	.
O=C(Cc1ccccn1)N1CCCCN2[C@H](C1)[C@@H](c1ccc(-c3ccccc3)cc1)[C@@H]2CO	i	.
COc1ccc(C#Cc2ccc([C@H]3[C@H](CO)N4CCCCN(C(=O)Cc5ccccc5)C[C@@H]34)cc2)cc1	i	.
O=C1C2CC=CCC2C(=O)N1SC(Cl)(Cl)Cl (stereo not drawn)	i	.
O=C(O)[C@H]1[C@H](CO)[C@H]2Cn3c(ccc(-c4ccccc4F)c3=O)[C@@H]1N2C(=O)Nc1ccccc1	i	.
O=C(Cc1cccnc1)N1CCCCN2[C@H](C1)[C@H](c1ccc(C#CC3CCCC3)cc1)[C@@H]2CO	i	.
CN1OC[C@@H]2CN3C4(C[C@@H]21)c1ccccc1C3(c1ccccc1)c1ccccc14	i	.
CS(=O)(=O)N1Cc2cc(Br)ccc2-n2nncc2C1	i	.
CCCNC(=O)[C@@H]1[C@@H](CO)[C@@H]2Cn3c(cccc3=O)[C@@H]2N1C	i	.
O=C(Cc1ccncc1)N1CCCCN2[C@H](C1)[C@H](c1ccc(C#Cc3ccccc3F)cc1)[C@@H]2CO	i	.
CCCN1[C@@H]2Cn3c(ccc(-c4cccc(C(=O)N(C)C)c4)c3=O)[C@H]1[C@@H](C(=O)OC)[C@@H]2CO	i	.
COC(=O)C[C@@H]1CC[C@H]2NC[C@@H](O)COC[C@@H]2O1	i	.
O=C(NCCN1CCC2(CC1)C(=O)NCN2c1ccccc1)c1cc(C(F)(F)F)ccc1C(F)(F)F	i	.
O=C(Cc1ccccn1)N1CCCCN2[C@@H](CO)[C@@H](c3ccc(C#Cc4ccccc4)cc3)[C@@H]2C1	i	.
COc1ccc(C#Cc2ccc([C@@H]3[C@H]4CN(C(=O)Cc5cccnc5)CCCCN4[C@H]3CO)cc2)cc1	i	.
N#Cc1ccc(-c2ccc([C@H]3[C@H]4CN(C(=O)Cc5ccccc5)CCCCN4[C@H]3CO)cc2)cc1	i	.
COc1cccc(NC2=NCCS2)c1	i	.
CN(C)CC#Cc1ccc([C@@H]2[C@H](CO)N3CCCCN(C(=O)Cc4ccccn4)C[C@@H]23)cc1	i	.
CCOC(=O)[C@@H]1[C@@H]2NC(=S)N(C)[C@@]1(C)Oc1ccccc12	i	.
C[C@H]1CN([C@@H](C)CO)C(=O)CCCn2cc(nn2)CO[C@@H]1CN(C)C(=O)Oc1ccc2ccccc2c1	i	.

In the list so far, these contain a Cl atom:
SMILES	FGF22 binding	Ecoli growth
Cc1cc(O)ccc1Cl	i	.
Cc1cccc2nc(-c3ccccc3)c(-c3ccc(CN4CCC(n5c(=O)[nH]c6cc(Cl)ccc65)CC4)cc3)nc12	i	.
O=C1C2CC=CCC2C(=O)N1SC(Cl)(Cl)Cl (stereo not drawn)	i	.

The list goes on.
SMILES	FGF22 binding	Ecoli growth
COC(=O)[C@H]1N[C@H]2c3ccc(C4=CCCC4)c(=O)n3C[C@H]2[C@@H]1CO	i	.
COC(=O)[C@@H]1[C@@H](CO)[C@@H]2Cn3c(cccc3=O)[C@H]1N2C(=O)C1CCCC1	i	.
CN(C)CC#Cc1ccc([C@@H]2[C@H]3CN(C(=O)Cc4ccccn4)CCCCN3[C@H]2CO)cc1	i	.
COC(=O)[C@H]1[C@H](CO)[C@H]2Cn3c(ccc(C4=CCCCC4)c3=O)[C@@H]1N2CCc1ccccc1	i	.
Cc1cccc(S(=O)(=O)N2[C@@H]3c4ccc(-c5ccncc5)c(=O)n4C[C@H]2[C@H](CO)[C@H]3C(=O)O)c1	i	.
OC[C@@H]1[C@@H]2c3ccccc3NC[C@@H]2N1Cc1cccnc1	i	.
N#Cc1ccc2nc(-c3ccc(CN4CCC(n5nnc6ccccc65)CC4)cc3)c(-c3ccccc3)nc2c1	i	.
COc1ccc(-c2ccc([C@@H]3[C@H](CO)N4CCCCN(C(=O)Cc5ccncc5)C[C@@H]34)cc2)cc1	i	.
COc1ccc(-c2ccc([C@@H]3[C@@H](CO)N4CCCCN(C(=O)Cc5ccncc5)C[C@@H]34)cc2)cc1	i	.
COC(=O)[C@H]1[C@H](CO)[C@H]2Cn3c(cccc3=O)[C@H]2N1CC1CC1	i	.
COC(=O)[C@H]1[C@H](CO)[C@H]2Cn3c(ccc(-c4cccc(OC)c4)c3=O)[C@@H]1N2C(=O)c1cnccn1	i	.
O=S(=O)(c1ccc(Cl)cc1)N1Cc2ccc(Br)cc2-n2nncc2C1	i	.
CCCC#Cc1ccc([C@@H]2[C@H](CO)N3CCCCN(C(=O)Cc4ccccn4)C[C@@H]23)cc1	i	.
Cc1ccccc1-c1ccc([C@H]2[C@@H](CO)N3CCCCN(C(=O)Cc4ccccn4)C[C@H]23)cc1	i	.
CN1CC[C@@H]2CN[C@H](c3ccccc3Br)C[C@@H]21	i	.
COc1ccc(C#Cc2ccc([C@@H]3[C@@H](CO)N4CCCCN(C(=O)Cc5ccncc5)C[C@H]34)cc2)cc1	i	.
O=C(NC1CN2CCC1CC2)c1ccc(Cl)cc1 (stereo not drawn)	i	.
COc1ccc(OC(=O)N(C)C[C@H]2OCc3ccccc3-c3c(n(C)c4ccccc34)C(=O)N([C@@H](C)CO)C[C@H]2C)cc1	i	.
CN(C)C(=O)[C@H]1[C@H](CO)[C@H]2Cn3c(cccc3=O)[C@@H]1N2CC1CC1	i	.
COc1ccc(-c2ccc([C@H]3[C@H]4CN(C(=O)Cc5ccccc5)CCCCN4[C@H]3CO)cc2)cc1	i	.
COC(=O)[C@H]1[C@H](CO)[C@H]2Cn3c(ccc(-c4cccc(F)c4)c3=O)[C@@H]1N2C(=O)CC1CC1	i	.
COC(=O)[C@@H]1[C@@H](CO)[C@@H]2Cn3c(ccc(-c4ccccc4)c3=O)[C@H]1N2CC1CCOCC1	i	.
COc1ccc(-c2ccc([C@H]3[C@@H](CO)N4CCCCN(C(=O)Cc5ccncc5)C[C@H]34)cc2)cc1	i	.
Cc1ccccc1-c1ccc([C@H]2[C@@H](CO)N3CCCCN(C(=O)Cc4ccccn4)C[C@@H]23)cc1	i	.
COC(=O)[C@@H]1[C@@H](CO)[C@@H]2Cn3c(ccc(C4=CCCCC4)c3=O)[C@H]1N2Cc1ccccn1	i	.
COc1cccc(-c2ccc([C@H]3[C@H]4CN(C(=O)Cc5ccncc5)CCCCN4[C@H]3CO)cc2)c1	i	.
COC(=O)[C@H]1[C@H](CO)[C@H]2Cn3c(ccc(C4=CCCCC4)c3=O)[C@@H]1N2C(=O)Cc1ccccn1	i	.
N#Cc1cccc(-c2ccc([C@H]3[C@H](CO)N4CCCCN(C(=O)Cc5cccnc5)C[C@@H]34)cc2)c1	i	.
COC(=O)[C@@H]1[C@@H](CO)[C@@H]2Cn3c(ccc(-c4cccnc4)c3=O)[C@H]1N2S(=O)(=O)c1ccccc1F	i	.
CCC(=O)N1[C@@H]2Cn3c(ccc(-c4cccc(F)c4)c3=O)[C@H]1[C@@H](C(=O)OC)[C@@H]2CO	i	.
CCN1[C@@H]2c3ccc(-c4cccc(C(=O)N(C)C)c4)c(=O)n3C[C@H]1[C@H](CO)[C@H]2C(=O)OC	i	.
CCc1ccc(-n2c(O)c(C=NN3CCCCC3c3cccnc3)c(=O)[nH]c2=O)cc1 (stereo not drawn)	.	0.73
OC1C2CCC1C(N1CCCCC1)CC2 (stereo not drawn)	.	0.7
COC(=O)C1=C(c2ccccc2OCc2ccccc2)CC2CCC1N2C(=O)NCc1ccc(OC)c(OC)c1 (stereo not drawn)	.	0.7
COC(=O)C1=C(c2ccccc2)CC2CCC1N2C(=O)NCCS(C)=O (stereo not drawn)	.	0.71
CC1C(c2ccccc2)OC(c2ccccc2Br)N1C (stereo not drawn)	.	0.67
COc1cc2c(c(OC)c1OC)-c1ccc(C(=O)O)cc1C(NC(C)=O)CC2 (stereo not drawn)	.	0.67
COC(=O)C1=C(c2ccc(-c3ccccc3)c(F)c2)CC2CCC1N2C(=O)NCCNC(C)=O (stereo not drawn)	.	0.68
COCCNC(=O)N1C2CCC1C(C(=O)OC)=C(c1ccc(OC(F)(F)F)cc1)C2 (stereo not drawn)	.	0.68
COC(=O)C1=C(c2cc3ccccc3o2)CC2CCC1N2C(=O)N1CCOCC1 (stereo not drawn)	.	0.7
COC(=O)C1=C(c2cccc3c2S(=O)(=O)c2ccccc2-3)CC2CCC1N2C(=O)N1CCc2cc(OC)c(OC)cc2C1 (stereo not drawn)	.	0.73
COC(=O)C1=C(c2cccc(OC)c2OC)CC2CCC1N2C(=O)NCc1ccccc1 (stereo not drawn)	.	0.68
COC(=O)C1=C(c2c(C)noc2C)CC2CCC1N2C(=O)NCc1ccc2c(c1)OCO2 (stereo not drawn)	.	0.7
Cc1cc(C)cc(N2C(=O)NC(=O)C(=Cc3cc(C)n(C)c3C)C2=O)c1	.	0.74
COC(=O)C1=C(c2ccc(OC(F)(F)F)cc2)CC2CCC1N2C(=O)NC1Cc2ccccc2C1 (stereo not drawn)	.	0.72

One compound at a time (already shown). Order of values: FGF22 binding | Ecoli growth
Shown for OC1C2CCC1C(N1CCCCC1)CC2 (stereo not drawn) = . | 0.7
Shown for COC(=O)C1=C(c2cccc(OC)c2OC)CC2CCC1N2C(=O)NCc1ccccc1 (stereo not drawn) = . | 0.68
Shown for CCN1[C@@H]2c3ccc(-c4cccc(C(=O)N(C)C)c4)c(=O)n3C[C@H]1[C@H](CO)[C@H]2C(=O)OC = i | .
Shown for COC(=O)C1=C(c2ccc(-c3ccccc3)c(F)c2)CC2CCC1N2C(=O)NCCNC(C)=O (stereo not drawn) = . | 0.68
Shown for COC(=O)C1=C(c2ccccc2OCc2ccccc2)CC2CCC1N2C(=O)NCc1ccc(OC)c(OC)c1 (stereo not drawn) = . | 0.7

Carrying on.
SMILES	FGF22 binding	Ecoli growth
CC(=Cc1ccccc1)CC1=C(C)C2(CC2)[C@@]2(C)OC(=O)OC2C1=CCO (stereo partly drawn)	.	0.68
COC(=O)C1=C(c2cccc(C#N)c2)CC2CCC1N2C(=O)NC1CCCCC1 (stereo not drawn)	.	0.69
COC(=O)C1=C(c2cccc(OC)c2OC)CC2CCC1N2C(=O)NC1CCCCC1 (stereo not drawn)	.	0.7
C=C(COC(=O)CCC(=O)O)CC1CC(O)[C@]2(C)OC3CC4OC5C[C@]6(C)O[C@]7(C)CCC8OC9C[C@]%10(C)OC%11C(C)=CC(=O)OC%11CC%10OC9CC(C)C8OC7CC6O[C@]5(C)CC=CC4OC3CC2O1 (stereo partly drawn)	.	0.69
[N-]=[N+]=CC(=O)OCC(N)C(=O)O (stereo not drawn)	.	0.65
COC(=O)C1=C(c2ccc(OC)c(OC)c2)CC2CCC1N2C(=O)N1CCCC1 (stereo not drawn)	.	0.71
COC(=O)C1=C(c2ccc(F)cc2OCc2ccccc2)CC2CCC1N2C(=O)NCc1ccccc1C(F)(F)F (stereo not drawn)	.	0.72
C=C1C2CCC3C(OC(C)=O)[C@@]2(CC(O)[C@@]2(O)C1CC(O)C2(C)C)C[C@@]3(C)O (stereo partly drawn)	.	0.62

Source: PubChem BioAssay
